PrP 5UTR inh: inhibition of PrP 5' UTR reporter expression; cell-based PrP 5' UTR mRNA reporter, plate reader; AID 488862; hit rate 0.35% among 340,000; inhibition, % (no concentration beside the values);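 active = every replicate at 50% or more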;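 also: 0 = median of the neutral control wells; tested in H4 reporter cells; numbers are from one replicate; inactives centre near -14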
Autofluor counter: compound fluorescence in toxin protease inhibitor counterscreen; compound autofluorescence counterscreen, microsphere flow cytometry; stronger effect = higher value; fluorescence intensity (no concentration beside the values); hit rate 3.1% among 360,000; AID 624483;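 active = at least 3 SD above the mean of all compounds, about 16000 in these data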;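 also: 100 nL of 1 mM stock went into each well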
ugtP null kill: kills S. aureus RN4220 lacking UgtP; S. aureus RN4220 ugtP deletion, OD600 growth, 16 h; some inactives read as strong as hits; growth inhibition, % (no concentration beside the values); hit rate 0.54% among 330,000; AID 1259309;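 active = z-score under -3 and OD600 up to 0.15 on both plates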;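 also: plate controls were untreated wells for no effect and antibiotic for full effect; wells of about 80 µL received 100 nL stock; the first replicate is given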
RN4220 kill: S. aureus RN4220 growth inhibition | hit rate 0.33% among 330,000 | AID 1259311 | inhibition, % (concentration not given with the values) | OD600, 16 h;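 active = z-score of -3 or lower and OD600 up to 0.18 on both plates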;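 also: plate controls were untreated cells for no effect and reference antibiotic for full effect; stock transfer was 100 nL into about 80 µL; one replicate is shown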
BJeLR viability: BJeLR cell viability loss | BJeLR (HRASV12) viability, CellTiter-Glo ATP luminescence, 48 h; reference of the scale not given here | inhibition, % (test concentration not listed) | hit rate 0.17% among 300,000 | AID 1554;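 active = replicate mean above 50%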;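 also: 50 nL library stock added to about 25 µL; numbers are from one replicate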
Mtb hypoxia inh: inhibitors of hypoxia-regulated fluorescent reporter in Mycobacterium tuberculosis | M. tuberculosis hypoxia-regulated fluorescent reporter, fluorescence | fluorescence inhibition, % (test concentration not listed) | hit rate 0.1% among 300,000 | AID 1159583;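 active = 35 to 45% if threefold the growth effect, above 45% if 1.5-fold the growth effect; inactive = the rest, general growth blockers included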;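 also: wells of about 50 µL received 100 nL stock; 0% = vehicle wells and 100% = reference inhibitor wells; whole bacteria with a GFP reporter of the hypoxia response; strong numbers were not always called active; many hits fall short of the cut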
Mtb hypoxia inh growth: further read-out of Mtb hypoxia inh, marked with its call; growth inhibition, %; measured here: M. tuberculosis growth (absorbance);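 0% = vehicle and 100% = reference antibiotic; read after six days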
Active calls of the source: *.

What do the screens show for `Nc1ncc(Br)cc1S(=O)(=O)NC1CCCCC1`?
PrP 5UTR inh: -7; Autofluor counter: 5770; ugtP null kill: 0; RN4220 kill: 3.2; BJeLR viability: 3; Mtb hypoxia inh: 10; Mtb hypoxia inh growth: 17

Results for NC(=O)COc1ccc(C(=O)/C=C2/C(=O)Nc3ccccc32)cc1 ?
PrP 5UTR inh: -20; Autofluor counter: 3825; ugtP null kill: 2; RN4220 kill: 5.2; BJeLR viability: 4; Mtb hypoxia inh: 10; Mtb hypoxia inh growth: -1

Results for Cc1ccc(S(=O)(=O)NCCCCCC(=O)Nc2cccc(C)c2)cc1 ?
PrP 5UTR inh: -16; Autofluor counter: 2381; ugtP null kill: 4; RN4220 kill: 0.5; BJeLR viability: 11; Mtb hypoxia inh: 10; Mtb hypoxia inh growth: 7

Results for CCOC(=O)c1ccc(NC(=S)N2CCCC(C(=O)OCC)C2)cc1 (configuration not stated) ?
PrP 5UTR inh: -25; Autofluor counter: 4223; ugtP null kill: 8; RN4220 kill: 4.1; BJeLR viability: 2; Mtb hypoxia inh: 7; Mtb hypoxia inh growth: 8

What do the screens show for `Cc1cccc(CSc2ccc3nnc(-c4cccs4)n3n2)c1`?
PrP 5UTR inh: -11; Autofluor counter: 2607; ugtP null kill: 7; RN4220 kill: -0.7; BJeLR viability: -15; Mtb hypoxia inh: 5; Mtb hypoxia inh growth: 11

What do the screens show for `CC(=CCCC(C)(O)C1CC[C@@]2(C)C3CC=C4C(CCC(OC5OC(CO)C(O)C(O)C5O)C4(C)C)[C@]3(C)C(=O)C[C@]12C)COC1OC(CO)C(O)C(O)C1O` (some centres not stated)?
ugtP null kill: 0; RN4220 kill: 4.1; Mtb hypoxia inh: 6; Mtb hypoxia inh growth: 13

What do the screens show for `Cc1cc(C(=O)CSc2nc3ccccc3[nH]2)c(C)n1C`?
PrP 5UTR inh: -59; Autofluor counter: 4021; ugtP null kill: -14; RN4220 kill: -2.5; BJeLR viability: -4; Mtb hypoxia inh: 7; Mtb hypoxia inh growth: 7

Results for Cc1ccc(NC(=O)C2=C(C(=O)O)CCCC2)cc1Br ?
PrP 5UTR inh: -27; Autofluor counter: 15659; ugtP null kill: 7; RN4220 kill: 1.8; BJeLR viability: -11; Mtb hypoxia inh: 16; Mtb hypoxia inh growth: 7

What do the screens show for `CC(C)NC(=O)CN(Cc1ccccc1)S(=O)(=O)c1ccccc1`?
PrP 5UTR inh: -12; Autofluor counter: 8401; ugtP null kill: -1; RN4220 kill: 11; BJeLR viability: 4; Mtb hypoxia inh: 12; Mtb hypoxia inh growth: 7

How did CSc1ccccc1C(=O)Nc1cccc([N+](=O)[O-])c1 do in these assays?
PrP 5UTR inh: -10; Autofluor counter: 4563; ugtP null kill: 2; RN4220 kill: 1.6; BJeLR viability: 5; Mtb hypoxia inh: 5; Mtb hypoxia inh growth: 6

How did CC(C)(C)c1ccc(OCC(O)CS(=O)(=O)c2ccccn2)cc1 (configuration not stated) do in these assays?
Autofluor counter: 10518; ugtP null kill: 1; RN4220 kill: 1.6; BJeLR viability: -8; Mtb hypoxia inh: -7; Mtb hypoxia inh growth: 2

How did COc1ccc(N2CCC(CNC(=S)Nc3c(C)cc(C)cc3C)C2)cc1 (configuration not stated) do in these assays?
PrP 5UTR inh: -20; Autofluor counter: 5838; ugtP null kill: -4; RN4220 kill: -4.0; BJeLR viability: -5; Mtb hypoxia inh: -11; Mtb hypoxia inh growth: -6

How did CCCCCCOC(=O)c1ccc(N)cc1 do in these assays?
PrP 5UTR inh: -6; Autofluor counter: 4344; ugtP null kill: 6; RN4220 kill: 13; BJeLR viability: -4; Mtb hypoxia inh: 0; Mtb hypoxia inh growth: 8

How did O=C(CCc1nc2ccccc2[nH]1)N1CCc2ccccc2C1 do in these assays?
PrP 5UTR inh: -36; Autofluor counter: 5267; ugtP null kill: -6; RN4220 kill: 4.0; BJeLR viability: -3; Mtb hypoxia inh: 1; Mtb hypoxia inh growth: 3

How did COC(=O)CCC(=O)COc1ccccc1C#N do in these assays?
PrP 5UTR inh: 1; Autofluor counter: 11151; ugtP null kill: -5; RN4220 kill: -0.1; BJeLR viability: -12; Mtb hypoxia inh: 0; Mtb hypoxia inh growth: 7

How did COc1cc2c(cc1NS(=O)(=O)N1CCCC1)oc1ccccc12 do in these assays?
PrP 5UTR inh: -3; Autofluor counter: 10361; ugtP null kill: 1; RN4220 kill: -2.7; BJeLR viability: 5; Mtb hypoxia inh: 3; Mtb hypoxia inh growth: 7

How did CCOc1ccc(-c2cc(N)n(S(=O)(=O)c3ccc(OC)cc3)n2)cc1 do in these assays?
PrP 5UTR inh: -3; Autofluor counter: 6153; ugtP null kill: 15; RN4220 kill: 1.6; BJeLR viability: -7; Mtb hypoxia inh: 6; Mtb hypoxia inh growth: 3

What do the screens show for `O=C(Nc1ccc(F)cc1)C1CCN(c2ncnc3c2nc2n3CCCCC2)CC1`?
PrP 5UTR inh: 5; Autofluor counter: 5851; ugtP null kill: 0; RN4220 kill: -1.1; BJeLR viability: 0; Mtb hypoxia inh: -4; Mtb hypoxia inh growth: 8

How did CCOC(=O)n1c(=O)n(Cc2ccccc2)c2ccccc21 do in these assays?
PrP 5UTR inh: -5; Autofluor counter: 2434; ugtP null kill: 3; RN4220 kill: -4.6; BJeLR viability: 5

Results for Cc1cccc(C(=O)OCC(=O)NCCCc2ccccc2)c1 ?
PrP 5UTR inh: 11; Autofluor counter: 4270; ugtP null kill: 2; RN4220 kill: 0.6; BJeLR viability: 1; Mtb hypoxia inh: 7; Mtb hypoxia inh growth: 1

Results for COc1ccccc1OCCCCNC(C)(C)C ?
PrP 5UTR inh: -16; Autofluor counter: 8338; ugtP null kill: 5; RN4220 kill: 2.0; BJeLR viability: -3; Mtb hypoxia inh: 2; Mtb hypoxia inh growth: -1

How did COc1cccc(/C=C2\SC(=S)N(NC(=O)c3ccncc3)C2=O)c1 do in these assays?
PrP 5UTR inh: -26; Autofluor counter: 4250; ugtP null kill: 12; RN4220 kill: 3.7; BJeLR viability: 0; Mtb hypoxia inh: 2; Mtb hypoxia inh growth: 9

How did CC/C(=C/c1sc2ccccc2[n+]1CC)SC do in these assays?
PrP 5UTR inh: -25; Autofluor counter: 2831; ugtP null kill: 8; RN4220 kill: -1.5; BJeLR viability: -2; Mtb hypoxia inh: -3; Mtb hypoxia inh growth: -7

What do the screens show for `CCN1CCN(C(=O)CCS(=O)(=O)c2cc3c(cc2Cl)NC(=O)CO3)CC1`?
PrP 5UTR inh: -6; Autofluor counter: 6466; ugtP null kill: 4; RN4220 kill: 2.7; BJeLR viability: 3

Results for O=C(NCCc1c[nH]c2ccccc12)C(=O)NCC(c1ccco1)N1CCN(c2ccc(F)cc2)CC1 (configuration not stated) ?
PrP 5UTR inh: -11; Autofluor counter: 2481; ugtP null kill: -4; RN4220 kill: 9.2; BJeLR viability: -15; Mtb hypoxia inh: 5; Mtb hypoxia inh growth: 5

How did O=C(Cc1ccccc1)NCCCNC(=O)Cc1ccccc1 do in these assays?
PrP 5UTR inh: -12; Autofluor counter: 3966; ugtP null kill: 5; RN4220 kill: 7.9; Mtb hypoxia inh: 10; Mtb hypoxia inh growth: 8

What do the screens show for `COc1ccc2c(c1)CCc1c(C(=O)NCc3ccco3)noc1-2`?
PrP 5UTR inh: -167; Autofluor counter: 24173*; ugtP null kill: 0; RN4220 kill: 5.0; BJeLR viability: -16; Mtb hypoxia inh: 15; Mtb hypoxia inh growth: 2

How did CCOc1cc(C)c(S(=O)(=O)NC2CCCCC2)cc1C do in these assays?
PrP 5UTR inh: -2; Autofluor counter: 4744; ugtP null kill: 3; RN4220 kill: -2.8; BJeLR viability: 5

What do the screens show for `COCCN1Cc2cc3cc(C)ccc3nc2SC1=Nc1cccc(OC)c1`?
PrP 5UTR inh: -25; Autofluor counter: 3545; ugtP null kill: 4; RN4220 kill: -4.9; BJeLR viability: 11; Mtb hypoxia inh: 8; Mtb hypoxia inh growth: 3

Results for COc1cccc(C(=O)NCC2(c3ccc(OC)c(OC)c3)CCCC2)c1 ?
PrP 5UTR inh: -6; Autofluor counter: 3949; ugtP null kill: -5; RN4220 kill: 23; BJeLR viability: -6; Mtb hypoxia inh: 5; Mtb hypoxia inh growth: -4

How did O=C(NN1C(=O)c2ccccc2NC1c1ccccc1OCc1ccccc1)c1ccncc1 (configuration not stated) do in these assays?
PrP 5UTR inh: -12; Autofluor counter: 2716; ugtP null kill: 1; RN4220 kill: 2.7; BJeLR viability: 11

What do the screens show for `O=C1NC(=Nc2ccccc2Cl)SC1(CO)CO`?
PrP 5UTR inh: -17; Autofluor counter: 3448; ugtP null kill: 11; RN4220 kill: 1.3; BJeLR viability: -1; Mtb hypoxia inh: 4; Mtb hypoxia inh growth: 6

Results for Nc1nc(Sc2ccc(C(F)(F)F)cc2[N+](=O)[O-])n[nH]1 ?
PrP 5UTR inh: -3; Autofluor counter: 2405; ugtP null kill: 6; RN4220 kill: 0.5; BJeLR viability: -3

How did CCCNC(=O)C1CCN(S(=O)(=O)c2cccc3nonc23)CC1 do in these assays?
PrP 5UTR inh: -16; Autofluor counter: 4535; ugtP null kill: -4; RN4220 kill: 6.7; BJeLR viability: -2; Mtb hypoxia inh: 12; Mtb hypoxia inh growth: 7

How did Cc1cc(C)c2cc(CN(CCN3CCCC3)C(=O)Nc3ccc(F)cc3)c(=O)[nH]c2c1 do in these assays?
PrP 5UTR inh: -4; Autofluor counter: 10627; ugtP null kill: -5; RN4220 kill: 4.6; BJeLR viability: 9; Mtb hypoxia inh: 6; Mtb hypoxia inh growth: 6

What do the screens show for `CCc1nc(SCC(=O)O)c(C#N)c2c1CCCC2`?
PrP 5UTR inh: -15; Autofluor counter: 4111; ugtP null kill: 6; RN4220 kill: 5.4; BJeLR viability: 5; Mtb hypoxia inh: 11; Mtb hypoxia inh growth: 8

What do the screens show for `O=c1oc2ccccc2cc1-c1csc(NN=C2CCCC2)n1`?
PrP 5UTR inh: -21; Autofluor counter: 2571; ugtP null kill: -19; RN4220 kill: 1.6; BJeLR viability: 14; Mtb hypoxia inh: 12; Mtb hypoxia inh growth: 6

Results for Cc1cc(C)c(S(=O)(=O)N2CCN(C(=O)c3c(C)noc3C)CC2)c(C)c1 ?
PrP 5UTR inh: -23; ugtP null kill: 0; RN4220 kill: 2.0; Mtb hypoxia inh: 10; Mtb hypoxia inh growth: 3

How did COCCCNC(=S)NNC(=O)c1cc(C2CC2)nc2ccccc12 do in these assays?
PrP 5UTR inh: -14; Autofluor counter: 4475; ugtP null kill: 7; RN4220 kill: 3.0; BJeLR viability: 3; Mtb hypoxia inh: 7; Mtb hypoxia inh growth: -1

Ordered by formula weight (largest number first): six of the compounds above.
How did O=C(NN1C(=O)c2ccccc2NC1c1ccccc1OCc1ccccc1)c1ccncc1 (configuration not stated) do in these assays?
PrP 5UTR inh: -12; Autofluor counter: 2716; ugtP null kill: 1; RN4220 kill: 2.7; BJeLR viability: 11

Results for Cc1cc(C)c(S(=O)(=O)N2CCN(C(=O)c3c(C)noc3C)CC2)c(C)c1 ?
PrP 5UTR inh: -23; ugtP null kill: 0; RN4220 kill: 2.0; Mtb hypoxia inh: 10; Mtb hypoxia inh growth: 3

How did COCCCNC(=S)NNC(=O)c1cc(C2CC2)nc2ccccc12 do in these assays?
PrP 5UTR inh: -14; Autofluor counter: 4475; ugtP null kill: 7; RN4220 kill: 3.0; BJeLR viability: 3; Mtb hypoxia inh: 7; Mtb hypoxia inh growth: -1

How did CCCNC(=O)C1CCN(S(=O)(=O)c2cccc3nonc23)CC1 do in these assays?
PrP 5UTR inh: -16; Autofluor counter: 4535; ugtP null kill: -4; RN4220 kill: 6.7; BJeLR viability: -2; Mtb hypoxia inh: 12; Mtb hypoxia inh growth: 7

Results for Nc1nc(Sc2ccc(C(F)(F)F)cc2[N+](=O)[O-])n[nH]1 ?
PrP 5UTR inh: -3; Autofluor counter: 2405; ugtP null kill: 6; RN4220 kill: 0.5; BJeLR viability: -3

What do the screens show for `O=C1NC(=Nc2ccccc2Cl)SC1(CO)CO`?
PrP 5UTR inh: -17; Autofluor counter: 3448; ugtP null kill: 11; RN4220 kill: 1.3; BJeLR viability: -1; Mtb hypoxia inh: 4; Mtb hypoxia inh growth: 6

Assay outcomes as filed in PubChem BioAssay.

No enrichment for hits; 4% or so of the library scored in one or more.
